PV pol inh = poliovirus RNA polymerase inhibition; P03300; poliovirus polymerase elongation, fluorescence polarization; active compounds read low; % elongation, % (compound at 16.7 µg/mL); 0.66% of 150,000 active; in the data active = % elongation below about 90%; also: some results filed as inactive read as strong as hits
Target sequence (P03300 1749-2209 limits assumed): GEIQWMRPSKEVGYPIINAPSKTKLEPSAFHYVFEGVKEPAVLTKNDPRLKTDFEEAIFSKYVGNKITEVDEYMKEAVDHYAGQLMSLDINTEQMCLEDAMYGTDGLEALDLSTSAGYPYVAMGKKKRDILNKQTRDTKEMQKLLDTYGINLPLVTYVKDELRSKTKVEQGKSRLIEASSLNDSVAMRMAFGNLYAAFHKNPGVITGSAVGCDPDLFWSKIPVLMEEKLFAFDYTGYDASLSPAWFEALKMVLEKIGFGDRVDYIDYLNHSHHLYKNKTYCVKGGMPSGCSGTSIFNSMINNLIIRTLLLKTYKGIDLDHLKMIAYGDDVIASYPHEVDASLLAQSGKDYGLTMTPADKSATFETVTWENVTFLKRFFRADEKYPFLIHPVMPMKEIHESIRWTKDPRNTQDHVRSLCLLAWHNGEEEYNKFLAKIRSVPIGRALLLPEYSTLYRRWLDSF
MbtI inh = blocks the Mycobacterium tuberculosis siderophore enzyme MbtI | inhibition, %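 (about 17 µg/mL by stock and volumes)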 | P9WFX0 | 0.89% of 100,000 active | purified MbtI enzyme, fluorescence intensity read-out;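 active = above 50% in both replicates, above 80% if mildly self-fluorescent; inactive = the rest, strongly fluorescent compounds included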;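 also: 0% = mean of negative and 100% = mean of positive controls; one replicate is shown; some compounds called inactive have numbers as strong as hits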
Target sequence (P9WFX0 whole entry, looked up): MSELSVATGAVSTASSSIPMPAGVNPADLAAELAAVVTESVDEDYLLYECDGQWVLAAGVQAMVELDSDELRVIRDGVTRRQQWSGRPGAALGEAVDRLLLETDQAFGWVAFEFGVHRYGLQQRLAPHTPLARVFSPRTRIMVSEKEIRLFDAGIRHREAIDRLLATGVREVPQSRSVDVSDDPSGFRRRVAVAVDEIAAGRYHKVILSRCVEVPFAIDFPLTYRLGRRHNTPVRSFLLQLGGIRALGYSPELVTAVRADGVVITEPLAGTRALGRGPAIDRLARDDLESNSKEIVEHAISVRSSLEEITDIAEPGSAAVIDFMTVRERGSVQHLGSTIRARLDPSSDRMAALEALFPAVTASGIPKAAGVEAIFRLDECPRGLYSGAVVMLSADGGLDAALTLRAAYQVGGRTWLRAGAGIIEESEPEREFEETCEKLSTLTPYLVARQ
Mtb MenB inh = blocks the Mycobacterium tuberculosis MenB enzyme; MenB enzyme assay, absorbance read-out; some hits fall short of the stated cut; inhibition, %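 (about 12 µg/mL by stock and volumes)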; 0.43% of 100,000 active; AID 540299;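 active = mean of two replicates above 30%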;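 also: 0% = no compound and 100% = wells with inactive enzyme; the first replicate is given; strong numbers were not always called active; inactives centre near -10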
PV pol inh intensity = recorded beside PV pol inh, whose call it bears; % elongation; measured here: total intensity read-out; formula for this scale not given here;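 total fluorescence in place of polarization; lower means less elongation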
* hit, by the source's call; · = no result given; & = joins results of further samples.

Screens in order – PV pol inh, PV pol inh intensity, MbtI inh, Mtb MenB inh
CC1CCN(C(=O)CCS(=O)(=O)c2ccc3c(c2)SCC(=O)N3)CC1
  103, 108, -8, -7
COc1ccc(C2CC(=O)C3=C(C2)Nc2ccccc2N(C(=O)C2CC2)C3c2cccnc2)cc1OC (stereo unspecified)
  99, 100, -1, -16
O=S(=O)(NC1CCCCC1n1cc(-c2ccccc2)nn1)c1ccc(Cl)cc1 (stereo unspecified)
  103, 102, 3, -9
Cc1ccc(C(=O)CSc2nc3ccccc3c(=O)n2Cc2ccco2)cc1
  102, 102, -3, -88
CC(C)c1cccc(O)c(=O)c1
  101&99, 104&103, -11, 2
Cc1nc(-c2ccccc2)c(CC(=O)O)s1
  103, 107, -4, -5
CC(=O)NC1=NC(=O)/C(=C\c2cccs2)N1C
  104, 110, -3, -133
N#Cc1cccc(NC(=O)CNC(=O)Cc2ccccc2)c1
  102, 108, -9, -8
CC(=O)NCC1CCCN2CCCCC12 (stereo unspecified)
  106, 112, ·, -8
Cc1ccc(S(=O)(=O)NCc2csc(C)n2)c(C)c1
  102, 103, 3, -3
S=C=NCCc1ccccc1
  89*, 98*, 65*, -23
COc1ccc(C(=O)NC2CCCCC2NC(=O)c2ccc(OC)cc2)cc1 (stereo unspecified)
  107, 112, ·, -12
Nc1nc(CN2CCCCC2)nc2ccccc12
  104, 105, -20, 4
CCOC(=O)C1=NNC2C(=O)N(Cc3ccccc3)C(=O)C12 (stereo unspecified)
  ·, ·, 21, 6
Cc1nn(Cc2ccccc2)c(C)c1C(=O)OCC(=O)N1CCCCC1C (stereo unspecified)
  101, 107, -3, -5

Exported with bars between the fields: entries from further up
molecule | PV pol inh | PV pol inh intensity | MbtI inh | Mtb MenB inh
COc1ccc(C2CC(=O)C3=C(C2)Nc2ccccc2N(C(=O)C2CC2)C3c2cccnc2)cc1OC (stereo unspecified) | 99 | 100 | -1 | -16
O=S(=O)(NC1CCCCC1n1cc(-c2ccccc2)nn1)c1ccc(Cl)cc1 (stereo unspecified) | 103 | 102 | 3 | -9
Cc1ccc(C(=O)CSc2nc3ccccc3c(=O)n2Cc2ccco2)cc1 | 102 | 102 | -3 | -88

The listing picks up with the 5 entries that preceded the break.
Screens in order – PV pol inh, PV pol inh intensity, MbtI inh, Mtb MenB inh
S=C=NCCc1ccccc1
  89*, 98*, 65*, -23
COc1ccc(C(=O)NC2CCCCC2NC(=O)c2ccc(OC)cc2)cc1 (stereo unspecified)
  107, 112, ·, -12
Nc1nc(CN2CCCCC2)nc2ccccc12
  104, 105, -20, 4
CCOC(=O)C1=NNC2C(=O)N(Cc3ccccc3)C(=O)C12 (stereo unspecified)
  ·, ·, 21, 6
Cc1nn(Cc2ccccc2)c(C)c1C(=O)OCC(=O)N1CCCCC1C (stereo unspecified)
  101, 107, -3, -5
CCCOc1ccc(C(F)(F)F)cc1NC(=O)CN1CSCC1=O
  98, 104, 0, 11
O=C(O)c1cc(=O)[nH]c2c(Cl)cccc12
  97, 98, ·, -52
CC1(C)CC(=O)c2cc3c(N)c(C(=O)c4ccc(Cl)cc4)sc3nc2C1
  107, 109, ·, -10
COC(=O)CC12CC3CC(C1)CC(C(=O)OC)(C3)C2
  102, 103, 0, ·
CN(CC(=O)Nc1ccc(S(=O)(=O)N(C)C)cc1)Cc1ccc(C(F)(F)F)cc1
  101, 112, -16, -16
NS(=O)(=O)c1ccc(CCNC(=O)c2ccco2)cc1
  112, 112, 10, 4
O=C(O)c1ccccc1C(=O)c1ccc2c(c1)OCCO2
  104, 104, -1, -8
O=[n+]1c2c(n([O-])c3c1CCCC3)CCCC2
  102, 101, 3, 16
C[N+](C)(C)CCOc1ccc2nc(N)sc2c1
  103, 96, 5, -3
O=C(Nc1ccccc1C(=O)N1CCCC1)Oc1ccccc1
  100, 105, -19, 3
CSC1=NCCN1C(=O)c1ccc(C(F)(F)F)cc1
  102, 106, 1, -13
Cc1ccc(C(C)NC(=O)c2ccc3c(c2)OCO3)cc1C (stereo unspecified)
  100, 100, 2, -4
O=c1c(-[n+]2ccccc2)cc2[nH]c3ccccc3c2n1-c1ccccc1
  102, 104, -4, -178
Cc1ccc(-n2c(C)cc(/C=C3\SC(=O)NC3=O)c2C)cc1
  100, 102, -27, 39*
CC1CCCC(C)N1C(=O)COC(=O)c1ccc(Br)cc1 (stereo unspecified)
  103, 108, -4, -2

Other structures
Screens in order – PV pol inh, PV pol inh intensity, MbtI inh, Mtb MenB inh
COc1ccc(C(=O)N/C(=C\c2cn(S(=O)(=O)N(C)C)c3ccccc23)C(=O)NCc2ccco2)cc1
  101, 102, 12, -5
O=C(CSc1nc2[nH]c(=O)cc(O)c2s1)NCc1ccccc1
  97, 110, 12, -134
Nc1ccc2c(c1)nc(CO)n2CCO
  104, 100, ·, -14
O=C(O)C1CSC2(CCN(Cc3ccccc3)CC2)N1 (stereo unspecified)
  99, 101, -3, 38*
O=C(Oc1cccc2cccnc12)c1cn(-c2ccccc2)nc1-c1ccccc1
  102, 106, 1, -28
CCN(c1ccccc1)S(=O)(=O)c1ccc2[nH]c(=O)c(=O)[nH]c2c1
  101, 103, 51, -15
Cn1nc(OC(C)(C)C(=O)Oc2ccc(Cl)cc2Cl)cc1C(F)(F)F
  104, 109, -2, -3
COCc1c(C(N)=O)nnn1-c1nonc1N
  101, 101, 0, -4
CCN(CC)S(=O)(=O)c1cccc(C(=O)OCc2nc3ccccc3s2)c1
  102, 111, -7, -24
O=C(Nc1ncnc2sc3c(c12)CCCCC3)c1ccc(F)cc1
  103, 104, 1, -24
COc1ccc(-c2nnc(SCC(=O)NC3CCCc4ccccc43)o2)cc1OC (stereo unspecified)
  99, 102, -4, -19
O=C1C=CC(=O)N1Cc1ccc(Cl)cc1
  100, 106, 72*, ·
N=C(N)N1CCOCC1
  98, 103, 3, 4
COc1ccc2c(c1)CCc1c(C(=O)N3CCCC3)noc1-2
  102, 99, 9, -22
Cc1nc(C(F)(F)F)ccc1C(=O)N1CCN(c2nc3ccc(Cl)cc3s2)CC1
  103, 108, -8, -8

(more compounds)
Screens in order – PV pol inh, PV pol inh intensity, MbtI inh, Mtb MenB inh
O=C1OC2(CCCCC2)OC(=O)C1=Cc1ccc(-c2ccc(C(=O)O)cc2)o1
  105, 104, 116, -41
CCOC(=O)Cc1csc(NC(=O)Nc2cccs2)n1
  101, 105, 24, 1
C=CCn1c(SCc2cc(=O)n3ccsc3n2)nnc1C1CCCCC1
  101, 109, -4, 2
c1ccc(Cn2c(CN3CCCC3)nc3ccccc32)cc1
  103, 104, 1, 10
C=C(C)Cn1c(N2CC(C)CC(C)C2)nc2c1c(=O)n(C)c(=O)n2C (stereo unspecified)
  101, 104, 1, 12
O=C(N/N=C/c1nc2ccccc2[nH]1)c1ccccc1
  103, 103, 10, -20
Cc1ccc(CCNC(=O)C2CCN(S(=O)(=O)N3CCOCC3)CC2)cc1
  101, 102, -11, -5
O=C(O)CCCC(=O)Nc1nc(-c2ccc(F)cc2)cs1
  101, 101, -4, -12
CSc1nc(N/C=C2/C(=O)c3ccccc3N(C)S2(=O)=O)nc(C2CC2)n1
  100, 103, -1, 9
O=C(Nc1cccc(-c2nc3ccccc3o2)c1)c1ccc(Br)cc1
  99, 101, ·, -8
S=C(NCCN1CCOCC1)NCc1ccc2c(c1)OCO2
  98, 106, -3, -2
CN(C)/C=N/c1ncc(-c2ccc(Br)s2)s1
  102, 97, ·, -1
CN(C(=O)C1CCCCC1)c1nc(-c2ccc(Cl)s2)cs1
  102, 100, -11, 4
O=C1OC(c2nn3c(-c4ccco4)nnc3s2)Cc2ccccc21 (stereo unspecified)
  103, 104, 51, -18
C=CCNC(=O)C1=CC(c2ccc(OC)cc2)=NS(=O)(=O)N1C
  102, 97, 1, -26

Remaining list, next part:
Screens in order – PV pol inh, PV pol inh intensity, MbtI inh, Mtb MenB inh
N#Cc1ccccc1N=C/C(Br)=C/c1ccccc1
  103, 107, -2, ·
Fc1ccc2c(c1)[C@H]1OCC[C@H]1[C@@H](c1ccco1)N2
  101, 101, 13, -10
CNC(=O)CN1C(=O)c2ccccc2S1(=O)=O
  108, 105, -203, -19
COc1cc(C(=O)Nc2ccc(S(=O)(=O)NC(C)C)cc2)cc(OC)c1OC
  100, 101, -1, -23
CCc1ccc(Oc2coc3cc(OC(C)C(=O)OC(C)C)ccc3c2=O)cc1 (stereo unspecified)
  102, 108, -7, -14
O=c1c2ccccc2n2cnnc2n1-c1ccccc1
  102, 104, -16, ·
Cc1cc2c(c(=O)n1Cc1ccccn1)C(c1ccccc1)C(C#N)=C(N)O2 (stereo unspecified)
  100, 97, 2, -24
CC(C)=CCCC1=NN(C=O)C(C)(CCC=C(C)C)C1 (stereo unspecified)
  101, 102, -3, -12
Cc1cc(=O)n2nc(N3CCCC(C(=O)NC4CCN(Cc5ccccc5)CC4)C3)sc2n1 (stereo unspecified)
  100, 101, -11, -2
CC1CN(Cc2c(O)ccc3c2oc(=O)c2ccccc23)CC(C)O1 (stereo unspecified)
  95, 87, 16, -14
CN(c1ccccc1)S(=O)(=O)c1ccc(C(=O)Nc2nnc(C(F)(F)F)o2)cc1
  108, 107, 9, -28
O=c1c2c([nH]c3ccccc13)CCCCC2
  100, 100, 20, 35*
C/C(=N/O)c1ccc(Br)cc1
  105, 100, ·, -20
O=S(=O)(Nc1cccnc1)c1ccc(C2CCCCC2)cc1
  101, 100, -16, 6
NC(=O)C1CCN(c2c3c(nc4nncn24)CCC3)CC1
  100, 103, -13, 12

Carrying on:
Screens in order – PV pol inh, PV pol inh intensity, MbtI inh, Mtb MenB inh
CCOC(=O)N1CCC(N2C(=O)c3ccc(C(=O)NC4CCCCCC4)cc3C2=O)CC1
  99, 103, -3, 8
CC(C)(C)N(Cc1ccccc1)C(=O)CSc1nnc(CNc2ccc(F)cc2)o1
  100, 103, -5, -13
CC(=O)N1CC(C)Oc2ccc(S(=O)(=O)Nc3ccc(OC(F)(F)F)cc3)cc21 (stereo unspecified)
  99, 102, -6, -15
CCOC(=O)c1noc2c1CCc1sccc1-2
  101, 102, 4, 0
O=C1C2C3C=CC(C3)C2C(=O)N1CCN1CCCC1 (stereo unspecified)
  103, 104, 0, -12
C=C1C(C(=O)Nc2ccccc2N2CCOCC2)C1C(=O)Nc1ccccc1N1CCOCC1 (stereo unspecified)
  103, 104, -11, -26
CCSc1n[nH]c(-c2c(Cl)c(CC)nn2C)n1
  101, 103, ·, 2
O=C(NCCOc1ccc(Cl)cc1)c1ccco1
  103, 99, -4, ·
O=C(O)c1cc(-c2ccc(O)c(O)c2)nc2n[nH]c(-c3ccc(F)cc3)c12
  101, 103, 21, 6
CCN(CC)CC(O)COc1ccc2c(c1)OCO2 (stereo unspecified)
  102, 96, 4, -32
O=C(C(NS(=O)(=O)c1cccs1)c1ccccc1)N1CCN(c2cccc(Cl)c2)CC1 (stereo unspecified)
  100, 101, 11, -25
O=C(/C=C/c1ccc(F)cc1)NC(=S)NN1CCOCC1
  100, 100, -6, -18
Cc1ccc(S(=O)(=O)Nc2ccc3c(c2)COC3=O)c(C)c1
  102, 102, 4, 2
CN(CC(N)=O)S(=O)(=O)c1ccc(F)cc1
  104, 102, -11, -16
CCC(C)n1nccc1NC(=O)C(C)OC(=O)c1cc2ccccc2[nH]1 (stereo unspecified)
  ·, ·, 97, -25

(cont.)
Screens in order – PV pol inh, PV pol inh intensity, MbtI inh, Mtb MenB inh
O=C(O)c1cccnc1OCc1ccccc1
  101, 101, -19, -19
CCOC(=O)c1ccc(NC(=O)COc2ccccc2F)cc1
  101, 105, -12, ·
CCOP(C)(=O)CN1CCOCC1 (stereo unspecified)
  100, 103, -10, -11
CCCCn1c(NC(=O)c2ccccc2)c(C#N)c2nc3ccccc3nc21
  60, 234, 21, -44
N#Cc1cc2c(=O)n3ccccc3nc2n(Cc2ccccc2)c1=O
  95, 136, 48, 5
O=C(Cn1nnc(-c2ccc(F)cc2)n1)NCCN1C(=O)CSC1=O
  ·, ·, -5, -20
CCc1ccc(NC(=O)CSC2=NN3CCCC(=O)N=C3S2)cc1
  102, 106, -13, -8
C=CCON1C(=O)CN(C(=O)Nc2ccccc2)C1c1ccccc1 (stereo unspecified)
  105, 104, ·, -12
COc1ccc(-n2c(=O)c3ccccc3n(CC(=O)NC3CCCC3)c2=O)cc1
  103, 101, -3, -4
Cc1ccc(-c2c[n+](-c3c4n(n(-c5ccccc5)c3=O)CCCCC4)c(C)n2C)cc1
  105, 98, ·, -9
CC(C)(CCO)NC(=S)NC1CC2C=CC1C2 (stereo unspecified)
  104, 103, -8, -15
COc1ccc(Cl)cc1NC(=O)CSC1CCCC1
  104, 107, 0, -7
CC1CCc2cc(F)ccc2N1C(=O)c1ccc(=O)[nH]n1 (stereo unspecified)
  103, 107, -19, -12
Cc1cc(C(=O)CSc2ccccn2)c(C)n1Cc1cccs1
  105, 108, 13, -9
